# High-throughput results deposited in PubChem by National Center for Advancing Translational Sciences (NCATS).
# Menin MLL FP FL – qHTS Assay for Inhibitors Targeting the Menin-MLL Interaction in MLL Related Leukemias: Competition With Fluorescein Labeled MLL-derived Peptide | Fluorescence polarization, fluorescein-MLL peptide displacement from menin | FP activity change, % at 61.4 µM | 290,000 tested, under 10 active | AID 1766, 2009; inconclusive = falling polarisation curve, or a change in total fluorescence; inactive = total fluorescence flat and polarisation flat or rising; no compound was filed as active; the % refers to the polarisation; negative = inhibition;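 also: % of control where 0% means no effect; inhibitors lower the polarisation; unlabelled MLL peptide was the positive control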
# Sfp PPTase inh – qHTS Assay for Inhibitors of Bacillus subtilis Sfp phosphopantetheinyl transferase (PPTase) | 4'-phosphopantetheinyl transferase ffp (Bacillus subtilis), Q9F4F7 | Biochemical Sfp PPTase activity, qHTS | Potency, µM, inactives show max response, negative = inhibition, usual class: inhibitors | 3.5% of 310,000 active; active = well fitted inhibition curve with a large enough effect; inconclusive = small, poorly fitted or top-dose-only effect, or another doubt; inactive = no such curve, though single readings can be large or run the other way;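 also: the enzyme is Sfp with the accession as filed and its product quenches rhodamine fluorescence; potency is read from the fitted curve at half-maximal effect; 0% = enzyme reaction without inhibitor and -100% = no enzyme wells; top concentration of the series not given in the record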
#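 Sfp 15 nM + cpd, 15 min RT; start w/ rhodamine-CoA 5 uM, BHQ-2-YbbR 12.5 uM (final); 50 mM Hepes pH 7.6, 10 mM MgCl2, 0.01% NP-40, 0.01% BSA; read 525/598 nm at 0 and 30 min.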
# * hit, by the source's call; ? = inconclusive; & = joins results of further samples; [ ] = dose if it differs, or a comment. Some of the compounds tested (hit frequency here may not be typical).
Menin MLL FP FL	Sfp PPTase inh	Compound
-0.6	-8%	CC(C)(N=NC(C)(C)C(=N)N)C(=N)N
-9.7	15%	CN(C)Cc1ccccc1-c1nc(NC2CCNCC2)c2ccccc2n1
4.1	-8%	CN(C)C(=O)NC1CCCCCCC1
?	21%	Cn1c(=O)c(-c2cccs2)nc2cnc(N3CCOCC3)nc21
1.5	-8%	CC(C)CN(C[C@@H](OP(=O)(O)O)[C@H](Cc1ccccc1)NC(=O)O[C@@H]1CCOC1)S(=O)(=O)c1ccc(N)cc1
-0.4[11.7 µM]	4%	COC(=O)C1=C(C(=O)OC)[C@@H]2Nc3ccccc3[C@@]23C[C@@H](C(=O)OC)N(S(=O)(=O)c2c(C)noc2C)C3=N1
3.7	11%	C[C@@H]1CC2C3CCC4=CC(=O)C=C[C@]4(C)[C@@]3(F)[C@@H](O)C[C@]2(C)[C@@]1(O)C(=O)COC(=O)c1cccc(S(=O)(=O)O)c1 (stereo partly drawn)
-0.2	20%	COCCn1c(=O)cnc2cnc(N3CCOCC3)nc21
2.4	-7%	C/C=C1/NN(CCCN2CCN(c3cccc(Cl)c3)CC2)C(=O)N1CCOc1ccccc1
-16	-4%	C[C@@](Cc1ccccc1)(NC(=O)CN)c1ccccc1
-0.8[11.7 µM]	9%	C[C@@H]1/C=C\CC(=O)OC[C@H]2O[C@@H](C=C[C@@H]2O)[C@H](C)/C=C\CC(=O)OC1
3.0	1%	CCCn1c(-c2ccc(F)cc2)nc2c(NCCN(CC)CC)nc(C)nc21
-0.5	11%	CCN(CC)CCOc1ccc2c(c1)C(=O)c1cc(OCCN(CC)CC)ccc1-2
1.4	-19%	COc1ccccc1-c1cncnc1-n1ccnc1
-3.9	-4%	COC(=O)N1[C@H]2CC[C@@]3(C)C=C(C)O[C@]1(C)C3c1ccccc12
2.4	-4%	COc1ccc(Oc2ncc3nc(-c4ccc(Cl)cc4)c(=O)n(C)c3n2)cc1
-1.9	-6%	COc1ccc2c(c1)C(=O)[C@@H](OC(=O)Nc1ccc(C)c(Br)c1)[C@H](c1ccc(OC)c(Br)c1)O2
1.7[11.7 µM]	-13%	C[C@H]1Cc2c(-c3ccccc3)nc3c(c2CO1)CN(S(=O)(=O)c1ccc(Cl)c2nonc12)CC3
-4.5[24.8 µM]	21%	CNC[C@H](O)c1ccc(OC(=O)C(C)(C)C)c(OC(=O)C(C)(C)C)c1
6.4	26%	O=C(NCCOc1ccccc1)O[C@@H]1C(=O)c2cc(Br)ccc2O[C@H]1c1ccc2c(c1)OCO2
-9.5	17%	CCCn1c(-c2ccc(F)cc2)nc2c(NCCN(C(C)C)C(C)C)nc(C)nc21
-1.3[11.7 µM]	-5%	CC(C)=CCC/C(C)=C/CO/N=C1/C[C@@H](O)[C@@H](O)[C@@H]2[C@@H]3C(=O)N(Cc4ccccc4)C(=O)[C@H]3CC[C@H]12
1.1	0%	O=C(O)[C@H](Cc1c[nH]c2ccccc12)N1C(=O)C2=CCCC=C2C1=O
1.4	-9%	Cc1cccc(CNc2ncnc3ccc(-c4c(C)noc4C)cc23)c1
3.3	0%	COC(=O)NC(C(=O)OC)(C(=O)OC)c1ccccc1
-9.2	6%	COC(=O)N1CCC[C@@]2(CCN(c3ccncc3)C2)C1
-5.2&2.8[11.7 µM]	-4%&10%	CCOC(=O)CCN1C(=O)[C@H]2[C@@H]3[C@H](O)[C@H](O)CC(=O)[C@H]3CC[C@H]2C1=O
3.0	-24%	C=C(C(=O)C(C)(C)O)C(O)c1ccc([N+](=O)[O-])cc1 (stereo not drawn)
-0.7	20%	CCC(CCC(C)C1CCC2C3CCC4CC(O)CC[C@@]4(C)C3CC[C@@]12C)C(C)C (stereo partly drawn)
-1.4	18%	O=C(O)C[CH2][Ge](=[O])[O][Ge](=[O])[CH2]CC(=O)O

# In another format: entries from further up.
# Order of values – Menin MLL FP FL, Sfp PPTase inh
- C/C=C1/NN(CCCN2CCN(c3cccc(Cl)c3)CC2)C(=O)N1CCOc1ccccc1
  2.4, -7%
- C[C@@](Cc1ccccc1)(NC(=O)CN)c1ccccc1
  -16, -4%
- C[C@@H]1/C=C\CC(=O)OC[C@H]2O[C@@H](C=C[C@@H]2O)[C@H](C)/C=C\CC(=O)OC1
  -0.8[11.7 µM], 9%

# Back to the main list, starting two compounds before the break.
Menin MLL FP FL	Sfp PPTase inh	Compound
-0.7	20%	CCC(CCC(C)C1CCC2C3CCC4CC(O)CC[C@@]4(C)C3CC[C@@]12C)C(C)C (stereo partly drawn)
-1.4	18%	O=C(O)C[CH2][Ge](=[O])[O][Ge](=[O])[CH2]CC(=O)O
0.8	-9%	C#C[C@@]1(O)CC[C@@H]2[C@H]3CCC4=C/C(=N\O)CC[C@H]4[C@@H]3CC[C@]21CC
42[activator]	45µM*	CC(C)(C)c1ccc(S(=O)(=O)/C=C\C#N)cc1
4.2[11.7 µM]	7%	CC(=O)OC[C@@H]1O[C@@H](O/N=C2/C[C@@H](O)[C@@H](O)[C@@H]3[C@@H]4C(=O)N(Cc5ccc6c(c5)OCO6)C(=O)[C@H]4CC[C@@H]23)[C@H](OC(C)=O)[C@H](OC(C)=O)[C@@H]1OC(C)=O
0.3	9%	CN(C)Cc1ccccc1-c1cncnc1NC1CC1
-5.4	10%	Cn1cnc2c(NC3CCCC3)ncnc21
2.2[11.7 µM]	31%[activator]	COC(c1ccccc1)C(C)C(OC)C(C)C(OC)C(C)C(C)=O (stereo not drawn)
5.4	0%	COc1cc(-c2coc3cc(OC)c(OC)c(OC)c3c2=O)cc(OC)c1OC
1.2[24.8 µM]	-1%	Cc1onc(-c2c(Cl)cccc2Cl)c1C(=O)N[C@H]1C(=O)N2[C@H]1SC(C)(C)[C@H]2C(=O)O
-10	-3%	CC(C)CC(NC(=O)CN)C(=O)NC(Cc1ccccc1)C(=O)O (stereo not drawn)
1.3	-16%	CC(=O)c1ccc(Nc2c3ccccc3cc3occc23)cc1
1.8	5%	C=C(NCc1ccccc1)c1ccccc1O
-4.8	24%	CCCCCCNC(=O)n1cc(F)c(=O)[nH]c1=O
1.9	-5%&11%	COC(=O)C1=C(C)NC(C)=C(C(=O)OCCSc2ccccc2)C1C (stereo not drawn)
-0.1	13%	COc1ccc(-n2c(=O)c(-c3cccs3)nc3cnc(OC)nc32)cc1
-1.3	7%	COC(=O)C(C)CCCC(C)CCCC(C)CCCC(C)C (stereo not drawn)
-5.8	3%	O=C(c1cnccn1)N1CCC2(CC1)CN(Cc1ccccc1)C2
0.5	-3%	COCCn1c(=O)c(-c2cccc(C#N)c2)nc2cnc(Oc3ccccc3)nc21
1.0[11.7 µM]	-7%	C/C=C/OC(=O)NC(c1ccccc1)[C@@]1(C(=O)OCC)CCCC1=O (stereo partly drawn)
4.8[11.7 µM]	-14%	CC(=O)OC[C@@H]1O[C@H](CCO/N=C(\C)CCC(=O)OC[C@@H]2O[C@H](C#Cc3ccccc3)C=C[C@@H]2Oc2ccc(C)cc2)C=C[C@@H]1OC(C)=O
0.1[11.7 µM]	?	O=C1[C@H]2[C@H]3[C@H](O)[C@H](O)C/C(=N/OCc4ccccc4)[C@H]3CC[C@@H]2C(=O)N1C[C@@H]1CCCO1
6.6[11.7 µM]	15%	COCOc1ccc(Br)cc1C(=O)[C@H]1O[C@H]1c1cccc(OC)c1
0.4	16%	COc1ccc(C(=O)/C(Br)=C/C(=O)O)cc1
?	5%	COc1cccc(Nc2ncc3nc(-c4cc(F)cc(F)c4)c(=O)n(C[C@H]4CCCO4)c3n2)c1
-0.3	17%	CC1CN(c2c(F)c(N)c3c(=O)c(C(=O)O)cn(C4CC4)c3c2F)CC(C)N1 (stereo not drawn)
-5.6	15%	COc1ccc(-c2nc3cnc(N4CCN(C)CC4)nc3n(C3CC3)c2=O)cc1
4.7	-12%	COc1ccc(Oc2ncc3ncc(=O)n(C[C@H]4CCCO4)c3n2)cc1
-3.6	5%	O=c1cnc2cnc(N3CCNCC3)nc2n1CCc1ccccc1
?	32µM*	c1ccc(Nc2cc(-c3ccoc3)ncn2)cc1
4.1	7%	CCCCC/C=C\C[C@H](O)/C=C/C=C/C=C/[C@@H](O)CCCC(=O)O
-0.3[11.7 µM]	16%	COC(=O)C1=C(C(=O)OC)[C@@H]2N(C)c3ccccc3[C@@]23C[C@@H](C(=O)OC)N(S(=O)(=O)c2ccc(C)cc2)C3=N1

# Quoted at random: four entries already listed.
Menin MLL FP FL	Sfp PPTase inh	Compound
?	32µM*	c1ccc(Nc2cc(-c3ccoc3)ncn2)cc1
0.8	-9%	C#C[C@@]1(O)CC[C@@H]2[C@H]3CCC4=C/C(=N\O)CC[C@H]4[C@@H]3CC[C@]21CC
0.1[11.7 µM]	?	O=C1[C@H]2[C@H]3[C@H](O)[C@H](O)C/C(=N/OCc4ccccc4)[C@H]3CC[C@@H]2C(=O)N1C[C@@H]1CCCO1
-0.1	13%	COc1ccc(-n2c(=O)c(-c3cccs3)nc3cnc(OC)nc32)cc1

# (listing goes on)
Menin MLL FP FL	Sfp PPTase inh	Compound
-0.2	23%	CCC/C=C(\CCC)C(NC(=O)c1ccc(-c2ccccc2)cc1)c1ccc(C(=O)OC)cc1 (stereo not drawn)
2.7	-18%	COc1ccccc1-c1cc(N(C)Cc2ccco2)ncn1
-7.6	4%&22%	CC#CCOC(=O)C1=CCCN(C)C1
0.7	25%	N#Cc1cccc(NC(=O)N2CCCC3(CCN(C(=O)c4ccncc4)CC3)C2)c1
2.0	-2%	CC(Oc1ccccc1)C(=O)NC1C(=O)N2C(C(=O)O)C(C)(C)S[C@@H]12 (stereo partly drawn)
?	16%	CCNc1ncc2nc(C)c(=O)n(C)c2n1
-6.5	11%	CCCn1c(C)nc2c(NCCCN(C)C)nc(C)nc21
-1.2	10%	COc1ccc2c(c1)O[C@@H](c1cccc(C(F)(F)F)c1)[C@H](OC(=O)NS(=O)(=O)c1ccc(C)cc1)C2=O
-1.8&2.8&-0.1[11.7 µM]	18%&6%&2%	O=C1C[C@@H](O)[C@@H](O)[C@H]2[C@@H]3C(=O)N(C4CCCCC4)C(=O)[C@@H]3CC[C@H]12
-0.8	-6%	COc1ccc(Oc2ncc3nc(-c4ccc(F)cc4)c(=O)n(C)c3n2)cc1
0.9	4%	CS(=O)(=O)N1CCC2(CCCN(C(=O)Nc3ccccc3)C2)CC1
-8.0	2%	COc1ccc(NC(=O)N2CCC3(CC2)CCN(S(=O)(=O)c2ccccc2)CC3)cc1
0.6	14%	CCCCCCCC/C=C\CCCCCCCC(=O)N[C@H](CO)Cc1ccc(O)cc1
?	13%	C=C[C@@]1(C)CC(=O)[C@@]2(O)[C@@]3(C)[C@@H](O)CCC(C)(C)[C@@H]3[C@H](OC(=O)CCN(C)C)[C@H](OC(C)=O)[C@@]2(C)O1
-4.2	?	COc1ccc(C(=O)N2CCC3(CCCN(C(c4ccccc4)c4ccccc4)C3)CC2)cc1
-2.0	14%	O=C(Nc1ccccc1)N1CC[C@@]2(CCCN(C(=O)c3cccc(F)c3)C2)C1
-1.7	28%	CCC1=C2CC[C@H]3C(=O)N(c4ccccc4)C(=O)[C@H]3[C@H]2[C@@]2(Cc3ccccc3)C(=NCCc3c[nH]c4ccccc34)OC(=O)N2C1=O
10	8%	O=C1NN(C(=O)Nc2ccc(Br)cc2)C(c2ccccc2)C1c1ccccc1 (stereo not drawn)
0.8	?	CCC(=O)CC
-5.7	56µM*	N[C@@H](Cn1cc(F)c(=O)[nH]c1=O)C(=O)O
0.5	28%	Cc1noc(C)c1-c1ccc2ncnc(NCc3cccnc3)c2c1
0.1	12%	CN[C@@H]1[C@H](O[C@H]2[C@H](O[C@H]3[C@H](O)[C@@H](O)[C@H](N=C(N)N)[C@@H](O)[C@@H]3N=C(N)N)O[C@@H](C)[C@]2(O)C=O)O[C@@H](CO)[C@H](O)[C@H]1O
3.0	7%	C/C(=C\CO)CCC(C)CCCC(C)CCCC(C)C (stereo not drawn)
0.0	13%	C[C@]12CCC(=O)C=C1[C@@H]1C[C@H]1[C@H]1[C@@H]3[C@@H]4C[C@H]4[C@@]4(CCC(=O)O4)[C@@]3(C)CC[C@@H]12
-6.7	-4%	CC(C)(C)c1cc(C(=O)/C=C/c2ccc(C(=O)O)cc2)cc(C(C)(C)C)c1
-1.6	15%	NCCC[C@@H](CC(=O)N[C@@H]1CCCC[C@H]1C(=O)N[C@H](CC(=O)N[C@@H](CCC(=O)O)CC(=O)O)Cc1ccccc1)NC(=O)C[C@H](Cc1ccccc1)NC(=O)[C@@H]1CCCC[C@H]1N
-4.4	14%	COC(=O)C1(C(C)=O)CC2=CC[C@@H]3C(=O)N(c4ccccc4)C(=O)[C@@H]3[C@@H]2Cc2ccccc2[C@@H]1C[N+](=O)[O-] (stereo partly drawn)
-22	-8%	CC[C@H](NC(=O)[C@H](CCCN=C(N)N)NC(=O)[C@H](Cc1c[nH]c2ccccc12)NC(=O)[C@@H](N)CS)C(=O)N[C@@H](CCCN=C(N)N)C(=O)N[C@@H](Cc1ccc(O)cc1)C(N)=O
0.8	13%	OC[C@H]1O[C@@](CO)(O[C@H]2O[C@H](CO)[C@@H](O)[C@H](O)[C@H]2O)[C@@H](O)[C@@H]1O
2.3	6%	NC(N)=NCCCC(NC(=O)C(N)Cc1ccc(O)cc1)C(=O)O (stereo not drawn)
